# PABP FP inh: PABP-poly(A) binding inhibition; P11940; PABP-poly(A) RNA binding, fluorescence polarization; AID 2014; hit rate 1% among 290,000; inhibition, % at 35 µM;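 active = 50% or more with normal probe brightness, or confirmed in later tests; about a fifth of its hits are not listed in these tables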;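 note: calls also rest on retests at 20 µM and on dose response follow-up; controls were probe without protein and protein plus probe with vehicle; some compounds called inactive have numbers as strong as hits; many hits fall short of the cut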
# Target sequence (P11940 whole entry, looked up): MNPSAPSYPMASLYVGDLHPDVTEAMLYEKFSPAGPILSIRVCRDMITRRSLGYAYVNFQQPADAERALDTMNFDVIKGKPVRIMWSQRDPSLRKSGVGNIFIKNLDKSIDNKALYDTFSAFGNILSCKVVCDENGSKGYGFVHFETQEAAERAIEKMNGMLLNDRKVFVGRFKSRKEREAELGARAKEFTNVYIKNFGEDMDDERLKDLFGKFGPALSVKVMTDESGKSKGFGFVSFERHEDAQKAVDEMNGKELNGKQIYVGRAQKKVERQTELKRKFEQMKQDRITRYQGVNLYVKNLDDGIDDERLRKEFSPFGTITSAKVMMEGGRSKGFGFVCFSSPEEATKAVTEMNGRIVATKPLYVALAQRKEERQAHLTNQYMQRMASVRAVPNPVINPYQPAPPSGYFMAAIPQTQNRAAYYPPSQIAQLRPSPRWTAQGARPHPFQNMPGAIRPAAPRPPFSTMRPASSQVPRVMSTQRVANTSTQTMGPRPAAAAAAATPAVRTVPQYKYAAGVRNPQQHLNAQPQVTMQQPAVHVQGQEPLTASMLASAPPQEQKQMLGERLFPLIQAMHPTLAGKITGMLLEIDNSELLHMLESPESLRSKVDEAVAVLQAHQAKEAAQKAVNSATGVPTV
# Rce1 inh: blocks yeast Ras-converting enzyme; Q03530; yeast membranes, quenched prenylated peptide cleavage fluorescence; calls only; hit rate 0.27% among 290,000;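 active = fall in fluorescence gain of 50% or more versus controls, with final raw signal at or below 3038400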;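 note: plate controls were neutral control wells for no effect and wells lacking membranes for full effect; tested at 10 µM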
# Target sequence (Q03530 whole entry, looked up): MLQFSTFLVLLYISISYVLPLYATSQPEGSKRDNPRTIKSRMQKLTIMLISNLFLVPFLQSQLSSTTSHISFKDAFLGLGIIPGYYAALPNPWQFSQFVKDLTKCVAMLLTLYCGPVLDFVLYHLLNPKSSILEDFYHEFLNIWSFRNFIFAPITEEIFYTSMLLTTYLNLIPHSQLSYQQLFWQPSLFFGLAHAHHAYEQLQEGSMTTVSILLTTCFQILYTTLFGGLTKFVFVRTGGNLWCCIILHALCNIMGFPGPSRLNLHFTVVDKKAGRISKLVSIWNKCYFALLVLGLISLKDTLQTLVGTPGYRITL
# CSC inhib: cancer stem cell inhibition | cancer stem cell-like cells viability, luminescence | inhibition, % at 7.5 µM | hit rate 1.1% among 300,000;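 active = mean at 75% or more and at least half the replicates too; tested in HMLE shEcad cells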;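 note: 0% = median of negative and 100% = median of positive control wells; the first replicate is given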
# eIF4H FP inh: inhibitors of RNA binding by human eIF4H | AID 2012 | eIF4H fluorescence polarization binding assay | Q15056 | hit rate 0.94% among 290,000 | inhibition, % at 35 µM;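 active = 50% or more with normal probe brightness, or confirmed in later tests; about a fifth of its hits are not listed in these tables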;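 note: calls also rest on retests at 20 µM and on dose response follow-up; 0% = protein and probe with vehicle and 100% = probe without protein; strong numbers were not always called active; many hits fall short of the cut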
# MT1-MMP act inh: MT1-MMP (human) activation inhibition | P50281 | HT1080 RFP-PRO-GFP cells, GFP/RFP ratio fluorescence, overnight; percent of plate control window, DMSO zero | GFP/RFP ratio change, % at 20 µM | hit rate 0.061% among 360,000;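 active = GFP/RFP ratio change of at least 30% with cell ATP level not reduced by more than half and red fluorescence within 50% of control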; note: strong numbers were not always called active
#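 Test system: HT1080 RFP-PRO-GFP cells; Benchmarks: DMSO and RFP-L50D-GFP cell wells; Timing: cells overnight before dosing, compound overnight, 37 °C, 5% CO2; Compound: one 20 µM compound dose with 1% DMSO; Read-out: GFP/RFP fluorescence ratio.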
# UUG fidelity: yeast start codon fidelity modulation; S. cerevisiae UUG-firefly luciferase reporter, luminescence/redox ratio; hit rate 0.13% among 350,000; activity score, % at 18.7 µM; AID 602363;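 active = replicate mean at a twofold rise or more, about +100% in these data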;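 note: firefly luciferase made from a UUG start codon reports start codon fidelity; reporter light over untreated wells divided by growth signal over untreated wells; some hits fall short of that in this replicate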
# HIV Env fusion: HIV envelope-mediated fusion inhibition. inhibition, % at 12.3 µM. HeLa-JRFL Env/CEM21 cell fusion, luciferase. hit rate 1.1% among 360,000. AID 651610;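 active = mean replicate inhibition score of at least 50 and every replicate individually at or above 50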;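 note: 0% = plate neutral controls and 100% = maraviroc near 300 nM; one replicate is shown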
# MT1-MMP act inh RFP: second read-out of MT1-MMP act inh, no call of its own (marks repeat the call); RFP signal change, %; measured here: RFP expression control read;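 0 = vehicle wells; hits needed this value within 50% of zero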
# * hit, by the source's call; i = inactive; · = not tested or not shown.
SMILES,PABP FP inh,Rce1 inh,CSC inhib,eIF4H FP inh,MT1-MMP act inh,MT1-MMP act inh RFP,UUG fidelity,HIV Env fusion
O=C1C(C=NCCN2CCOCC2)=C(O)c2ccccc21,9.2,i,-22.8,13.5,-2.1,4.6,-1.1,-33.5
Cn1c(Cn2c(=O)sc3ccccc32)nnc1SCc1cccc(F)c1,1.6,i,-2.8,10.3,0.0,2.2,-14.2,-14.7
NC(=O)c1ccccc1Nc1nc2nc3ccccc3c(=O)n2cc1Br,10.4,i,15.4,4.6,·,·,·,·
Fc1ccc(CN2CCCN(Cc3nc(-c4ccc5c(c4)OCO5)no3)CC2)cc1,-3.8,i,·,0.7,-2.3,2.4,8.3,28.4
O=C(CSc1nc2ccc([N+](=O)[O-])cc2[nH]1)NCCc1ccccc1,-6.4,i,2.0,-1.9,-3.8,-5.8,·,·
COc1ccc(NC(=O)c2ccc(S(=O)(=O)N3CCCCC3)cc2)cc1OC,·,·,-17.4,·,8.0,2.7,-6.9,·
Cc1ccc(CCNC(=O)C2=CCN(S(=O)(=O)c3ccccc3)CC2)cc1,11.7,i,-9.1,-7.0,-0.4,1.8,12.8,0.9
C=CC[C@H](CC(=O)OC(C)(C)C)C(=O)OC[C@@H]1CCCN1C(=O)[C@@H](CC=C)CC(=O)NCCO,·,·,-17.3,·,1.7,2.5,9.1,-2.9
O=C(CN1CCOCC1)Nc1nc(-c2ccccc2)cs1,-3.5,i,·,9.8,-4.1,-1.1,-20.5,-3.3
N#Cc1ccccc1N=C1CCCN1Cc1ccccc1,1.2,i,1.0,-9.7,-2.3,1.9,-1.2,·
CCc1nc2ccc(C(=O)NCCCn3ccnc3)cn2c1N(CC)CCOC,·,·,·,·,-1.9,4.8,-11.0,-4.6
Cc1nc(N2CCN(Cc3ccc4c(c3)OCO4)CC2)[nH]c(=O)c1C,-4.7,i,·,0.2,1.2,2.3,-13.1,-4.6
O=C(CCCCCn1c(=O)[nH]c2ccccc2c1=O)NCCc1c[nH]c2ccccc12,-4.2,i,7.2,-4.7,-0.7,-1.6,·,-38.1
S=C(NCCSCc1ccc(Cl)cc1)Nc1ccccc1,-4.2,i,23.0,-7.5,4.0,-2.4,-30.5,-15.6
CC1(C)O[C@@H]1COc1c2ccoc2cc2oc(=O)ccc12,3.5,i,8.8,-1.8,1.2,0.5,-16.7,-28.0
Cn1c(CN2CCN(C(=O)c3ccc(F)cc3)CC2)nc2cc([N+](=O)[O-])ccc21,9.1,i,-0.3,-0.1,-3.1,-12.4,·,4.4
CC1CCN(c2nc(N(C)c3ccccc3)nc(N)c2[N+](=O)[O-])CC1,-4.0,i,-5.9,3.1,3.5,-5.6,-5.3,-6.8
O=C(COC(=O)c1ccc([N+](=O)[O-])o1)Nc1cccc(S(=O)(=O)N2CCOCC2)c1,-5.7,i,·,-1.2,1.6,-0.7,16.0,-10.3
O=C(CN1CCN(c2ccccn2)CC1)N1CC(O)CO1 (stereo unspecified),3.6,i,-11.3,0.8,0.8,4.3,·,3.6
COc1ccc([N+](=O)[O-])cc1NC(=O)Nc1ccccc1,1.8,i,-7.5,4.4,-3.2,-15.8,-8.6,35.1
NC(=O)c1ccccc1N=Cc1ccccn1,-0.3,i,-3.8,7.1,-1.0,7.9,-7.5,-90.6
Cc1ccccc1NC(=O)c1cccc(N2C(=O)C3CCC(C)CC3C2=O)c1 (stereo unspecified),0.9,i,·,24.8,1.6,0.9,6.7,22.1
Cc1ccc(S(=O)(=O)NC(C)(C)C)cc1C(=O)OCC(=O)N1CCCC1=O,·,i,-13.0,·,8.6,0.9,-5.6,-22.3
C=CCn1c(-c2cccnc2Cl)nc2cc(Cl)c(Cl)cc21,-2.1,i,-13.4,-2.3,-2.7,-0.6,-1.4,23.0
Cc1nnc(NC(=O)c2c(F)c(F)c(F)c(F)c2F)s1,14.3,i,·,0.3,-0.8,-0.7,-10.4,-7.2
# Additional entries:
SMILES,PABP FP inh,Rce1 inh,CSC inhib,eIF4H FP inh,MT1-MMP act inh,MT1-MMP act inh RFP,UUG fidelity,HIV Env fusion
Nc1ccc(C(=O)N2CCN(S(=O)(=O)c3ccc4c(c3)OCCCO4)CC2)cc1[N+](=O)[O-],·,·,-12.2,·,-0.1,-25.3,-11.0,13.8
NC(N)=N/N=C/c1cccc([N+](=O)[O-])c1O,2.1,·,-16.1,-1.3,2.8,-4.0,·,-1.7
Cc1ccc(NC(=S)NCCN2CCOCC2)cc1C,0.7,i,-12.8,3.5,6.4,3.2,-4.9,-29.9
Cc1ccc(C)c(N(C(=O)CNC(=O)c2ccco2)C(C(=O)NC2CCCC2)c2ccncc2)c1 (stereo unspecified),-3.5,i,·,-12.3,-0.2,2.2,-4.6,-1.9
CC(C)Oc1cccc(C(=O)C2CCCN(C(=O)CCn3cnnn3)C2)c1 (stereo unspecified),-4.3,i,1.3,-17.6,-1.7,1.0,-12.3,-2.2
COc1cccc(CN2CCN(CC#Cc3ccccc3)CC2CCO)c1 (stereo unspecified),-12.4,i,·,-2.5,1.1,0.9,0.8,-2.9
CN(CCOCCOc1ccc(F)cc1)Cc1ccccc1,-7.4,i,·,15.5,-3.6,2.2,-31.1,5.2
COc1ccc(-c2nc3ccc(Br)cn3c2Cc2ccsc2)cc1OC,·,·,·,·,4.2,-2.1,-11.1,3.5
CCCn1c(SC/C(O)=C(\C#N)c2nc3ccccc3[nH]2)n[nH]c1=O,5.5,i,-3.1,24.5,-5.8,5.0,·,10.5
COc1ccc(Nc2nc(NCCN3CCOCC3)nc(Nc3ccc(OC)cc3)n2)cc1,-0.6,i,-8.6,-9.6,-3.0,-1.4,-8.7,0.1
O=C(NCc1ccccc1F)C1CCCN1C(=O)Nc1ccccc1 (stereo unspecified),-5.4,i,7.4,1.6,-0.7,1.3,-14.7,-22.5
CCN1C(=O)[C@H]2[C@@H](c3ccc(C)cc3)N3C(=O)N(c4ccc(OC)cc4)C(=O)[C@@]3(Cc3ccc(Cl)cc3)[C@H]2C1=O,5.7,i,-3.4,-5.3,4.2,1.6,-9.5,-46.0
CCOC(=O)CC(N)c1ccc2c(c1)OCO2 (stereo unspecified),7.9,i,-13.3,-1.7,·,·,·,-43.4
O=C1CC(NS(=O)(=O)c2ccccc2)CN1c1ccc2c(c1)OCCO2 (stereo unspecified),·,i,-11.4,·,-0.9,1.6,0.8,1.2
Cc1ccc(CCNC(=O)C2CCN(S(=O)(=O)c3c(C)nn(C)c3C)CC2)cc1,6.4,i,3.9,-3.2,-6.0,4.3,-15.1,-27.4
Cn1cccc1C(=O)NC(=O)CSc1nnc(C2CC2)n1-c1ccccc1,10.8,i,-9.9,6.4,0.9,9.8,-23.4,-5.1
O=C(CCCN1C(=O)NC2(CCCC2)C1=O)Nc1ccc(Cl)c(S(=O)(=O)N2CCOCC2)c1,·,·,·,·,0.5,-1.5,-14.4,-9.1
O=C(NCc1ccccn1)C(=O)NCC1OCCN1S(=O)(=O)c1ccc([N+](=O)[O-])cc1 (stereo unspecified),-4.5,i,-11.6,-5.7,2.8,2.1,-28.8,18.3
CCC(Oc1ccccc1)C(=O)Nc1cc(C(F)(F)F)ccc1N1CCOCC1 (stereo unspecified),·,i,10.1,·,0.1,-4.8,·,8.3
CC(Oc1ccc([N+](=O)[O-])cc1)C(=O)NCCCN1CCOCC1 (stereo unspecified),-3.9,i,7.9,-9.3,-4.2,1.0,-25.0,13.0
CC1CC(C)(C)CC2(C1)NC(=O)N(CC(=O)N(Cc1ccccc1)c1ccccc1)C2=O (stereo unspecified),·,i,-2.1,·,-10.4,-8.6,-12.8,1.0
CCOC(=O)c1ccc(NC(=O)c2nc[nH]c2C(=O)N(C)CCO)cc1,·,·,·,·,-1.2,3.2,6.1,16.2
COC(=O)[C@@](C)(O)C1(C(=O)SC(C)(C)C)CC1,·,i,-20.8,·,2.8,5.5,-17.3,0.3
C=CCCC(=O)NC1CC(C)(C)Cc2c1cnn2-c1ccc(OC)cc1 (stereo unspecified),-0.6,i,-7.7,-6.1,3.8,-0.7,-3.7,-1.5
Cc1cc(C)c(C#N)c(SCC(=O)Nc2cccc(S(=O)(=O)N3CCCC3)c2)n1,·,·,·,·,-9.4,-5.3,-14.4,-18.8

# A portion from further up, for reference:
SMILES,PABP FP inh,Rce1 inh,CSC inhib,eIF4H FP inh,MT1-MMP act inh,MT1-MMP act inh RFP,UUG fidelity,HIV Env fusion
O=C(CCCN1C(=O)NC2(CCCC2)C1=O)Nc1ccc(Cl)c(S(=O)(=O)N2CCOCC2)c1,·,·,·,·,0.5,-1.5,-14.4,-9.1
O=C(NCc1ccccn1)C(=O)NCC1OCCN1S(=O)(=O)c1ccc([N+](=O)[O-])cc1 (stereo unspecified),-4.5,i,-11.6,-5.7,2.8,2.1,-28.8,18.3

# Next compounds
SMILES,PABP FP inh,Rce1 inh,CSC inhib,eIF4H FP inh,MT1-MMP act inh,MT1-MMP act inh RFP,UUG fidelity,HIV Env fusion
COc1ccc(C2CC(c3ccccc3)Nc3nc(NS(C)(=O)=O)nn32)cc1 (stereo unspecified),1.2,i,-5.5,-1.9,-1.8,1.2,-17.7,7.2
CC1(C(=O)NS(=O)(=O)c2ccc(F)cc2F)CCN1C(=O)c1ccccc1CCc1ccccc1 (stereo unspecified),·,·,·,·,3.4,5.5,14.5,-10.3
COc1ccc([N+](=O)[O-])c(OC)c1C(=O)Nc1ccc(F)cc1F,-3.9,i,-8.3,-1.7,-0.4,4.3,·,-3.9
O=C(CN1C(=O)C2CCCCC2C1=O)Nc1nccs1 (stereo unspecified),-11.4,i,-7.2,3.9,-1.0,4.2,·,4.1
COCCn1c(SCC(=O)Nc2ccc(OC)c(S(N)(=O)=O)c2)nc2ccccc21,-5.8,i,-22.7,-3.1,0.5,-16.1,-10.1,5.4
CCn1c(SCC(=O)NCCc2ccc(Cl)cc2)nnc1-c1cccs1,7.4,i,-18.5,-0.8,-2.8,-4.8,-5.8,·
O=C(OCC(=O)N1CCc2ccccc21)C1=COCCO1,15.0,·,-11.4,8.2,0.7,-1.4,-15.1,-66.4
Clc1nc(Cl)nc(-c2cn(-c3ccccc3)c3ccccc23)n1,-3.6,i,0.6,27.4,·,·,·,·
CCOC(=O)c1sc2nc(CC(=O)OC)nc(NCCN3CCOCC3)c2c1C,-0.6,i,·,4.9,-1.7,-0.8,-3.9,·
CCOc1ccccc1NC(=O)C(=O)NCC1CCCN1CC (stereo unspecified),12.1,i,12.0,-3.9,-0.5,6.0,-15.4,·
CN(C)CCCn1c2c(c(SCC(=O)Nc3ccc4c(c3)OCO4)nc1=O)CCC2,·,i,8.2,·,-3.2,4.3,-15.6,-3.5
COc1ccc2oc(-c3ccccc3)c(C(=O)N(C)C)c2c1,3.1,i,-17.0,-0.5,-4.4,-0.6,-12.5,2.4
CC(=O)NCCC(=O)N1CCCC(N(C)CCc2ccccc2)C1 (stereo unspecified),-3.4,i,-3.2,-9.4,-2.4,-1.5,-13.5,-9.9
NC(=S)Nc1cccc(O)c1,-4.0,i,1.7,3.4,-1.4,1.4,-12.4,-19.4
O=C1c2cc(Br)ccc2N(Cc2ccc(Br)cc2)S(=O)(=O)C1c1cc(Cl)c(Cl)cc1[N+](=O)[O-] (stereo unspecified),·,·,108.4*,·,-1.8,-5.0,-10.8,·
CCN(CC(=O)NCc1cccs1)C(=O)c1ccc(C)o1,·,·,-15.2,·,2.3,0.4,-19.2,2.1
N#Cc1c(-c2ccc(F)cc2)cc(C2CC2)nc1SCC(=O)c1cccs1,-6.5,i,20.0,-16.2,-14.3,-1.0,5.0,-5.7

# Gathered by group: the compounds so far with bromine
SMILES,PABP FP inh,Rce1 inh,CSC inhib,eIF4H FP inh,MT1-MMP act inh,MT1-MMP act inh RFP,UUG fidelity,HIV Env fusion
NC(=O)c1ccccc1Nc1nc2nc3ccccc3c(=O)n2cc1Br,10.4,i,15.4,4.6,·,·,·,·
COc1ccc(-c2nc3ccc(Br)cn3c2Cc2ccsc2)cc1OC,·,·,·,·,4.2,-2.1,-11.1,3.5
O=C1c2cc(Br)ccc2N(Cc2ccc(Br)cc2)S(=O)(=O)C1c1cc(Cl)c(Cl)cc1[N+](=O)[O-] (stereo unspecified),·,·,108.4*,·,-1.8,-5.0,-10.8,·

# Compound activity as filed in PubChem BioAssay.
